# Assay outcomes as filed in PubChem BioAssay.
# Bm FixLJ act: increases Burkholderia fixLJ two-component signaling. 0.3% of 29,000 active. B. multivorans fixK-promoter GFP reporter, 18 h; hits give high values. AID 1918990. z-score (concentration not given with the values);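 active = replicate mean overnight rise in green fluorescent reporter signal, 3 or more SD over negative controls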;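 note: score is relative to vehicle wells of the plate; 300 nL library stock went into each well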
# * marks the source's active call; other numbers are inactive results. An excerpt, so the mix of outcomes need not match the whole.
entry	SMILES	Bm FixLJ act
1	COc1ccc(Cl)cc1NC(=O)CSC1=Nc2ccccc2C2=NC(CC(=O)NCc3cccs3)C(=O)N12 (stereo not drawn)	-1.9
2	CSc1ncc(Cl)c(C(=O)Nc2c(C(=O)Nc3cccc(C)c3)oc3ccccc23)n1	-1.1
3	CNC(=O)c1c(NC(=O)Cc2coc3ccc(OC)cc23)sc2c1CCCC2	-0.47
4	Cc1c(C(=O)N2CCC(C(=O)N3CCCC3)CC2)c2cc(O)ccc2n1C	-0.25
5	Cc1ccc(Nc2nnc(-c3cc4c(ccc5ccccc54)oc3=O)s2)cc1	1.3
6	COc1ccccc1N1CCN(S(=O)(=O)c2c(C)sc3ncn(CC(=O)Nc4ccc(C(C)C)cc4)c(=O)c23)CC1	-1.6
7	COc1ccc(OC)c(CCNC(=O)c2cc3c(-c4ccccc4F)nn(C)c3s2)c1	1.4
8	CCc1noc(-c2cccc(NC(=O)NCCSc3nncn3C)c2)n1	-1.1
9	CCCCN(CC)CCCNC(=O)c1cn(CC(C)C)c(=O)c2c1c1ccccc1n2C	-0.46
10	COC(=O)c1cc2oc(C)cc2n1CC(=O)Nc1ccc(C(C)C)cc1	-0.35
11	Cn1c(CN2CCCCC2)nnc1C1CCCN(C(=O)c2ccn[nH]2)C1 (stereo not drawn)	-0.95
12	COc1ccc(Cl)cc1NC(=O)CCCS(=O)(=O)c1nc(-c2ccc(OC)c(OC)c2)cc(C(F)(F)F)n1	-0.02
13	CN(CC(=O)Nc1ccc(F)cc1F)S(=O)(=O)c1cccc2nsnc12	-0.27
14	CCCOc1cccc(C(=O)Nc2ccc(-c3cc4ccccc4oc3=O)c(C)c2)c1	1.6
15	CC1CCN(C(=O)Cn2c(=O)n(-c3ccc(Cl)cc3)c(=O)c3c4c(sc32)CCC4)CC1	0.38
16	CN(C)c1ccc(NC(=O)Cn2nnc3sc4c(c3c2=O)CCC(C(C)(C)C)C4)cc1 (stereo not drawn)	0.89
17	CCCCOc1ccc(C2=NC(c3ccccc3)=Nc3ccc(OC)cc3N2)cc1	1.9
18	CCCC(=O)OCC[N+](C)(C)C	-0.97
19	CCCCN(CCCNC(=O)c1cc(Nc2ccc(OC)c(OC)c2)nc2ccccc12)Cc1ccccc1	-0.5
20	CCCCn1c(CNC(=O)c2ccc(OC)cc2)nnc1SCC(=O)Nc1ccc(OC)cc1	-0.89
21	COc1cccc(CN2CCN(C(=O)NC(C)Cn3nc(C)cc3C)CC2)c1 (stereo not drawn)	-0.19
22	CC(C)CC(=O)C1CCCN(C(=O)c2ccc(NC3CCN(C)CC3)nc2)C1 (stereo not drawn)	-1.5
23	Cc1ccc(S(=O)(=O)c2nc(S(=O)(=O)c3ccccc3)sc2NCCCOC(C)C)cc1	1.5
24	Cc1ccc(-c2cc(C(=O)NCCCn3cnnc3)c3ccccc3n2)cc1	0.77
25	COc1cccc(N2CCN(C(=O)Cn3ncc4c5ccccc5n(C)c4c3=O)CC2)c1	-2.4
26	CC(C)c1ccc(N2CC(C(=O)NCC3CCOCC3)CC2=O)cc1 (stereo not drawn)	-1
27	CCCCCNc1nc2c(-c3ccccc3)nnn2c2ccccc12	-1.5
28	COc1ccc(CCNC(=O)CCCn2c(=O)c3ccccc3n(Cc3ccc(C)cc3)c2=O)cc1OC	-1
29	Cc1cc(C(=O)N2CCCC(c3nccn3Cc3cscn3)C2)no1 (stereo not drawn)	0.35
30	CCc1oc2ccccc2c1C(=O)c1cc(Br)c(O)c(Br)c1	-1.1
31	CC(=O)c1ccc(C(=O)NCc2cc(CC(C)C)no2)s1	0.19
32	Cc1ccc(N2CC(C)N(C(=O)c3cnc4ccccc4c3)CC2=O)cc1 (stereo not drawn)	-0.9
33	CSc1ccc(CN2CCN(C(=O)COc3cccc(C)c3)CC2)cc1	-1
34	CCOC(=O)c1c(NC(=O)/C=C/c2ccc(OCC)cc2)sc(C(C)=O)c1C	0.01
35	CCc1nn(CC(=O)NC2CC2)c(=O)c2cc3c(OC)cccc3n12	-0.43
36	COC(=O)c1ccn(-c2nc(-c3ccc(Cl)cc3)cc(C(F)(F)F)n2)n1	-1.1
37	CCCNC(=O)c1cc2c(s1)CCOC21CCN(c2cccc(C)n2)CC1	-1.6
38	Cc1noc(C)c1CN1CC2(CCN(C(=O)C3CCCN3)CC2)CC1=O (stereo not drawn)	-1.2
39	Cc1ccccc1NC(=O)Cn1cc(C(=O)c2cccs2)c2ccccc21	1.1
40	CC1(C)S[C@@H]2[C@H](NC(=O)[C@@H](N)c3ccc(O)cc3)C(=O)N2[C@H]1C(=O)O	-0.06
41	Cc1ccc(OCC(=O)Nc2cc(-c3nc4ccccc4[nH]3)ccc2C)c(C)c1	2.1
42	Cc1ccc(OCc2nc(-c3ccc(C(=O)N4CCN(c5ccc(Cl)cc5)CC4)cc3)oc2C)cc1	-0.57
43	COc1cccc(CNC(=O)C(NS(=O)(=O)c2ccc3nc(C)sc3c2)C(C)C)c1 (stereo not drawn)	-0.57
44	COCCn1c(CO)nnc1C1CC(NC(=O)c2cccc(F)c2)C1 (stereo not drawn)	0.66
45	Cn1nc(C(C)(C)C)cc1NC(=O)NCc1noc(C(N)=O)n1	0.43
46	CCOCCCNC(=O)c1cc2c(-c3ccc(OC)c(OC)c3)nn(C)c2s1	-2
47	COC1(C(F)(F)F)NC(=O)N(c2ccc(F)cc2)C1=O (stereo not drawn)	0.25
48	Cc1ccc(-c2cc(-c3coc4ccccc4c3=O)c3c(n2)-c2cc(Cl)ccc2OC3)cc1	0.89
49	Cc1ccnc(CC(C)N(C)C(=O)c2c[nH]c(=O)c(Cl)c2)c1 (stereo not drawn)	-0.65
50	O=C(Oc1ccccc1F)c1nc(SCc2ccccc2F)ncc1Cl	1.7
51	O=C(c1ccc(F)cc1)n1nc(-c2cccnc2)nc1NCc1ccc(F)cc1	-0.81
52	COc1ccc(-c2cc(C(=O)Oc3ccc(C)c(C)c3)c3ccccc3n2)cc1	0.28
53	Cc1ccc(CN2CCSc3ccc(C(=O)NCc4ccc(OC(C)C)cc4)cc32)cc1	-1.7
54	COc1ccc(NC(=O)CC2NCCNC2=O)c(OC)c1 (stereo not drawn)	-0.8
55	Cc1sc(NC(=O)C2c3ccccc3Oc3ccccc32)c(C(=O)OC(C)C)c1C	-2.4
56	O=c1n(Cc2cccc3ccccc23)nc(C2CCCNC2)n1-c1ccccc1 (stereo not drawn)	0.68
57	Cc1ccc2c(c1)-c1ncc(C(=O)c3cc(Br)ccc3O)cc1CO2	0.14
58	Cc1ccc(S(=O)(=O)n2nc(-c3ccccc3)nc2NCc2ccc(Cl)cc2)cc1	1.8
59	CCOC(=O)C1CCCN(c2c(C(=O)c3ccc(OCC)cc3)cnc3ccccc23)C1 (stereo not drawn)	2.1
60	COCCCNc1oc(/C=C/c2cc(OC)c(OC)c(OC)c2)nc1C#N	-1.2

# The list goes on.
entry	SMILES	Bm FixLJ act
61	O=C(NCCCc1nn[nH]n1)N1CCN(c2ccccn2)CC1	0.18
62	CC(=O)Nc1cccc(NC(=O)Cn2cnc3c2c(=O)n(C)c(=O)n3C)c1	-0.23
63	CC=CCCCC(=O)N1CCC[C@]2(C1)CN(C(=O)C1CCCC1)CCC2O (stereo partly drawn)	-0.82
64	O=C(O)Cc1sc(Nc2ccc(C(=O)O)cc2)nc1-c1ccccc1	-3
65	O=S(=O)(NCC(c1ccccc1)N1CCc2ccccc21)c1ccc(Cl)cc1 (stereo not drawn)	0.41
66	CCc1nccn1CCC(=O)Nc1cccc(-n2nnnc2C)c1	-4
67	COc1cc(C(=O)N(Cc2ccc(C(C)C)cc2)C2CCS(=O)(=O)C2)cc(OC)c1OC (stereo not drawn)	-2.5
68	O=C(c1ccc2nccn2c1)N1CCCCC1CCc1ccc(O)cc1 (stereo not drawn)	0
69	COCCn1cnnc1CCNC(=O)N1CCC2(CCc3ccccc32)CC1	-0.6
70	COc1ccc(-c2cc(C(F)(F)F)nc(SCCC(=O)Nc3ccc(F)cc3F)n2)cc1	0.01
71	Cc1ccc(C)c(NC(=O)Cn2c(=O)n(CC(=O)NCCc3ccccc3)c(=O)c3ccccc32)c1	-1
72	COc1ccc2nc(NC(=O)c3cc(=O)c4cc(C)c(C)cc4o3)sc2c1	-1.2
73	O=C(CCCN1CC=C(n2c(=O)[nH]c3ccccc32)CC1)c1ccc(F)cc1	-0.1
74	COC(=O)C(CCSC)NC(=O)c1cc2c(n(-c3ccc(OC)cc3)c1=O)CC(C)(C)CC2=O (stereo not drawn)	-2
75	Cc1ccc2[nH]c(CCCNC(=O)Nc3cn(C)nc3C)nc2c1C	-0.59
76	O=C(O)/C=C/c1ccc(Cn2ccnc2)cc1	-0.74
77	O=C(NCc1nc(-c2cccc(F)c2)c(-c2ccccn2)[nH]1)C1CCOCC1	-0.81
78	COc1cccc(CNCc2c(C(=O)O)c(C)n(Cc3ccc(F)cc3Cl)c2C)c1OC	-1.2
79	Cc1ccc(NC(=O)CCNS(=O)(=O)c2ccc(Br)s2)cc1	-0.29
80	Cc1cc(C(=O)N2CCCN(C(=O)c3ccc4c(c3)OCC(=O)N4)CC2)no1	-1
81	COc1cc(C)ccc1C(=O)NC(c1ccc2c(c1)CCO2)C1CC(O)C1 (stereo not drawn)	2
82	COC(=O)c1ccc(NC(=O)CSc2nc3c(c(=O)n(C)c(=O)n3C)n2Cc2ccccc2)cc1	-1.8
83	O=C(CN1C(=O)CNC1=O)N1CCC(Oc2cccc(C(F)(F)F)c2)CC1	-1.6
84	COCC1C(NC(=O)c2cc(-c3ccc(Cl)cc3)n[nH]2)C2CCOC21 (stereo not drawn)	-0.6

# 2 entries drawn at random from the list so far, as already listed:
entry	SMILES	Bm FixLJ act
79	Cc1ccc(NC(=O)CCNS(=O)(=O)c2ccc(Br)s2)cc1	-0.29
84	COCC1C(NC(=O)c2cc(-c3ccc(Cl)cc3)n[nH]2)C2CCOC21 (stereo not drawn)	-0.6

# (further entries)
entry	SMILES	Bm FixLJ act
85	Cc1noc(C)c1CN1CCc2c(C(=O)N(C)CC3CCOC3)csc2C1 (stereo not drawn)	0.59
86	Nc1c(C(=O)Nc2ccc(F)c(F)c2)sc2nc(-c3ccncc3)ccc12	-0.61
87	CC(C)CN1CC(C(=O)N2CCC(c3cc(=O)[nH]cn3)CC2)CCC1=O (stereo not drawn)	0.42
88	O=C(C1CCC(O)CC1)N1CCCCC1CCc1ccccn1 (stereo not drawn)	-0.54
89	COCCCNC(=O)CCCn1c(SCC(=O)c2ccc(F)cc2)nc2c(sc3ccccc32)c1=O	-0.97
90	CC(=O)S[C@@H]1CC2=CC(=O)CC[C@]2(C)[C@H]2CC[C@@]3(C)[C@@H](CC[C@@]34CCC(=O)O4)[C@H]12	-1.7
91	COCCCCN1CCC(O)[C@]2(CCCN(C(=O)CCC(C)C)C2)C1 (stereo partly drawn)	-1.7
92	CN(CC(=O)Nc1ccc(Br)cc1)S(=O)(=O)c1cccc2nsnc12	-1.2
93	COc1ccc(N(CC(=O)Nc2cccc(Cl)c2)S(=O)(=O)c2c(C)[nH]c(=O)[nH]c2=O)cc1	-0.22
94	CCCOCC(=O)NC(C)c1cnn(-c2cccc3ccccc23)c1C (stereo not drawn)	0.24
95	O=C(CCC1N=C2c3ccccc3N=C(SCc3ccccc3Cl)N2C1=O)N1CCN(c2ccccc2)CC1 (stereo not drawn)	-1.4
96	CCCNC(=O)NS(=O)(=O)c1ccc(Cl)cc1	-0.89

# A different layout for some results above.
51) O=C(c1ccc(F)cc1)n1nc(-c2cccnc2)nc1NCc1ccc(F)cc1
  Bm FixLJ act: -0.81

52) COc1ccc(-c2cc(C(=O)Oc3ccc(C)c(C)c3)c3ccccc3n2)cc1
  Bm FixLJ act: 0.28

53) Cc1ccc(CN2CCSc3ccc(C(=O)NCc4ccc(OC(C)C)cc4)cc32)cc1
  Bm FixLJ act: -1.7

54) COc1ccc(NC(=O)CC2NCCNC2=O)c(OC)c1 (stereo not drawn)
  Bm FixLJ act: -0.8

# (list continues)
entry	SMILES	Bm FixLJ act
97	CCC[C@]1(C(=O)O)CN(S(=O)(=O)c2ccccc2C)CCC1O (stereo partly drawn)	-0.89
98	Cc1ccc(O)c(-c2ccc(C(=O)NCCN(C)S(C)(=O)=O)cc2)c1	-1.1
99	Cc1ccc(C(C)C)c(OCC(=O)Nc2ccc(O)c(-c3nc4cc(Cl)ccc4o3)c2)c1	-0.02
100	CCOc1ccc(C2c3c(oc4ccccc4c3=O)C(=O)N2Cc2ccc3c(c2)OCO3)cc1 (stereo not drawn)	0.01
101	Cc1ccc(-n2c3c(c(=O)[nH]c2=O)C(NC(=O)c2ccccc2C)(C(F)(F)F)C(=O)N3)cc1 (stereo not drawn)	-2.5
102	Cc1nn(-c2nc(-c3ccc(F)cc3)cc(C(F)(F)F)n2)c(C)c1Cl	-2.3
103	CCNc1nc(N)nc(Oc2ccc(OCC(=O)OC)nn2)n1	0.45
104	O=C(Cc1ccccc1)Nc1sc2c(c1C(=O)Nc1ccc(Cl)cc1)CCCC2	0.26
105	CCCc1ccc(-c2ccc(C(=O)Oc3ccc(OCC)cc3)cc2)nc1	-1.5
106	Cn1c(=O)n(C)c2cc(N3CCCCC3)c(NC(=O)c3ccc(Cl)cc3)cc21	-1.3
107	Cc1cc(C)cc(NC(c2nnc(-c3cccc(F)c3)o2)c2ccc(F)cc2Cl)c1 (stereo not drawn)	0.07
108	CCCN1CCN(CCCNC(=O)c2cc3c(s2)-c2c(C)cccc2OC3)CC1	-1.5
109	CCOc1ccc(-c2nnc(SCC(=O)c3ccccc3)n2-c2ccccc2)cc1	-1.4
110	CC(=O)Nc1ccccc1OCc1cc(=O)n2c(C)csc2n1	-1.6
111	COc1ccc(NC(=O)C(c2ccc(OC)cc2)N(C)C(=O)Cc2cccs2)cc1 (stereo not drawn)	-1.4
112	CCOc1ccc(NC(=O)CCCc2nc(-c3cccc(OC)c3)no2)cc1	-0.34
113	COc1ccc(CCNC(=O)c2cc3c(=O)n(C)c4cc(Cl)ccc4c3s2)cc1OC	-1.1
114	Cc1cc(C(=O)N2CCC(c3nncn3C)CC2)c2ccc(C)c(C)c2n1	-3.3
115	CO[C@@]12CCC(OCCO)CC1N(Cc1ccccn1)CC2 (stereo partly drawn)	-0.1
